TRPV1 potentiator – HTS Assay for Compounds that Act as Potentiators of the Vanilloid Receptor 1. Transient receptor potential cation channel subfamily V member 1 (Homo sapiens), Q8NER1. TRPV1-expressing cells, Fluo-8 calcium influx, capsaicin EC20 potentiation; host cell line not named in the record; control for the full effect not named in the record. potentiation, % at 8.33 µM. 320,000 tested, 0.02% active. AID 540277, 2011; active means potentiation above 80%; inconclusive means 30% to 80%; inactive means below 30%; note: 0% is about no effect
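Fluo-8 calcium influx in TRPV1-expressing cells, kinetic read (ex 480/em 520 nm). Compound added and read 3 min for agonist activity, followed by capsaicin at EC20 final and 2 min further read for enhancement.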
TRPML1 inh – qHTS for Inhibitors of the Human Mucolipin Transient Receptor Potential 1 (TRPML1); TRPML1-inducible cells, Ca2+ dye fluorescence, FDSS; hits give low values; inhibition of EC80 agonist-evoked calcium signal; activity change, negative = inhibition, % (concentration not given with the values); 390,000 tested, 0.02% active; AID 624415, 2012; in the data active means activity change below about -50%; inconclusive means about -30% to -50%; inactive means above about -30%;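 note: stimulus is agonist 54-4 at its EC80 concentration; % is set by controls: 0 for no effect and ±100 for the full control effect; compound concentration not given in the record; the text of the record puts the active cut at -80%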
Target sequence (Q9GZU1 whole entry, looked up): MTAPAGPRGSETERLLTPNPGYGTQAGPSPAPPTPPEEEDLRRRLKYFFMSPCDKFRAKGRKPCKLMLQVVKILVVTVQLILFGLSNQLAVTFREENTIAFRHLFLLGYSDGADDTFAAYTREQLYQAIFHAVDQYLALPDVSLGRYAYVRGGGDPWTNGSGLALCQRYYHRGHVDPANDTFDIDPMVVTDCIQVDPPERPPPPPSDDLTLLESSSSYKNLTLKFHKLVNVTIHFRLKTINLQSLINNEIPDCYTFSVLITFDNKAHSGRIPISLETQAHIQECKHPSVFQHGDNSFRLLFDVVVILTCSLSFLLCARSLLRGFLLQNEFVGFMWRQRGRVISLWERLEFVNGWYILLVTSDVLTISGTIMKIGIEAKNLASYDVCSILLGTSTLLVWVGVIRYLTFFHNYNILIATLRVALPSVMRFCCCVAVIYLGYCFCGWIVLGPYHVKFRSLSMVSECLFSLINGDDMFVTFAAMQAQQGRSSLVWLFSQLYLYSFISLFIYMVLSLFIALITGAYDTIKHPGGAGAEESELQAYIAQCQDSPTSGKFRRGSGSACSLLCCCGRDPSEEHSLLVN
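TRPML1-DL cells, Tet-induced overnight (~16 h, 37 °C) at 1,500 cells/well, were loaded with Ca8 no-wash dye plus quencher for 45-90 min at room temperature. Compounds were pinned during FDSS kinetic reading; agonist 54-4 at EC80 (4 uM final) then added.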
PINK1 modulator – A Quantitative High throughput Screen to Identify Chemical Modulators of PINK1 Expression. PINK1 immunofluorescence, high-content cytometry, 24 h. 410,000 tested, 0.2% active. AID 624263, 2012. Potency, µM (doses to about 76.6 µM), without a hit: at the highest dose activation (PINK1 increase), most hits filed as activators; active = well fitted activation curve with a large enough effect; inconclusive = small, poorly fitted or top-dose-only effect; inactive = flat fitted curve, though single readings scatter; cell line not stated here;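 note: potency is the fitted concentration of half-maximal effect; % of control where 0% means no effect; nearly all actives have a fitted effect of over 65% in size; a mitochondrial uncoupler was the plate control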
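PINK1 protein level read as immunofluorescence by microplate cytometer in a fixed, stained stable cell line after 24 h exposure to five compound concentrations, with CCCP as control.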
TRPML1 agonist – qHTS for Agonists of the Human Mucolipin Transient Receptor Potential 1 (TRPML1); activation, % (no concentration beside the values); TRPML1-expressing cells, Ca2+ dye fluorescence, FDSS; host cell line not named in the record; reference of the full effect not given here; 410,000 tested, 0.12% active; AID 624414, 2012; Mucolipin-1 (Homo sapiens), Q9GZU1; in the data active = activation above about 50%; inconclusive = about 30% to 50%; inactive = below about 30%; note: 0% is about no effect; the text of the record puts the active cut at 80%
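Agonist activity was taken from a 110 s kinetic Ca2+ dye read on the FDSS after pinning compounds onto TRPML1-DL cells. The cells were seeded at 1,500/well with Tet inducer, incubated about 16 h, then dye-loaded at room temperature.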
Menin MLL FP FL – qHTS Assay for Inhibitors Targeting the Menin-MLL Interaction in MLL Related Leukemias: Competition With Fluorescein Labeled MLL-derived Peptide | FP activity change, % at 61.4 µM | AID 1766, 2009 | 290,000 tested, under 10 active | Fluorescence polarization, fluorescein-MLL peptide displacement from menin; inconclusive = falling polarisation curve, or a change in total fluorescence; inactive = total fluorescence flat and polarisation flat or rising; no compound was filed as active; the % refers to the polarisation; negative = inhibition;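 note: % of control where 0% means no effect; inhibitors lower the polarisation; unlabelled MLL peptide was the positive control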
ClpP mod – qHTS Assay for Activators of ClpP; ATP-dependent Clp protease proteolytic subunit (Bacillus subtilis (strain 168)), P80244; 340,000 tested, 1.9% active; Potency, µM (highest dose often 57.5 µM), for the others: top-dose activity change, negative = active; purified B. subtilis ClpP, FRET peptide cleavage, 20 min; AID 651965, 2013; active = well fitted falling curve with a large enough effect; inconclusive = small, poorly fitted or top-dose-only effect; inactive = no such curve, though single readings can be large or run the other way; note: potency is the fitted concentration of half-maximal effect; the source files actives as falling curves though it sought activators and does not explain the sign; nearly all actives have a fitted effect of over 65% in size; many hits overshoot -100%
Target sequence (P80244 whole entry, looked up): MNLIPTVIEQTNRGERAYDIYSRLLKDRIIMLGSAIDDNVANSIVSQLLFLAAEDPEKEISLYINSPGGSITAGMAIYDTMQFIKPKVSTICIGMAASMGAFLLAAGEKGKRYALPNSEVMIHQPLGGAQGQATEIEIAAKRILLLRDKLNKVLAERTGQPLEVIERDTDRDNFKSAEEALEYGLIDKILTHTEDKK
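Purified B. subtilis ClpP, 10 microg/mL final in Tris/HCl pH8 with KCl, BSA, glycerol and Tween-20, cleaved an Abz/nitrotyrosine-quenched decapeptide. Fluorescence (ex 320, em 430) was read at 0 and 20 min at room temperature. Delta was normalized to 5.8 microM ADEP and DMSO/no-enzyme controls.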
Sfp PPTase inh – qHTS Assay for Inhibitors of Bacillus subtilis Sfp phosphopantetheinyl transferase (PPTase); Potency, µM, for inactives: max response, negative = inhibition, most hits filed as inhibitors; 310,000 tested, 3.5% active; 4'-phosphopantetheinyl transferase ffp (Bacillus subtilis), Q9F4F7; Biochemical Sfp PPTase activity, qHTS; active = well fitted inhibition curve with a large enough effect; inconclusive = small, poorly fitted or top-dose-only effect, or another doubt; inactive = no such curve, though single readings can be large or run the other way;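 note: the enzyme is Sfp with the accession as filed and its product quenches rhodamine fluorescence; potency is the fitted concentration of half-maximal effect; 0% = enzyme reaction without inhibitor and -100% = no enzyme wells; top concentration of the series not given in the record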
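With Hepes-Na pH 7.6 buffer containing 10 mM MgCl2, Sfp (15 nM) modified BHQ-2-YbbR (12.5 uM) using rhodamine-CoA (5 uM). Two reads 30 minutes apart at 525/598 nm yielded each well's rate.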
The depositor's hits bear a star; ? = inconclusive; / = not tested or not shown; [ ] = remark or other dose.

SMILES	TRPV1 potentiator	TRPML1 inh	PINK1 modulator	TRPML1 agonist	Menin MLL FP FL	ClpP mod	Sfp PPTase inh
CC1(C)NC(=O)N(CN2C(=O)NC(C)(C)C2=O)C1=O	-6	6	-1.5%	0.0	0.2	0.6%	-14%
Cc1cc(NC(=O)CCNS(=O)(=O)c2ccc3c(c2)oc(=O)n3C)ccc1Br	/	-3	-1.4%	-0.3	/	-1.5%	/
CCCN(C(=O)CSc1n[nH]c(-c2ccc(OC)cc2)n1)c1c(N)n(Cc2ccccc2)c(=O)[nH]c1=O	11	-8	3.3%	0.5	/	-4.4%	/
N#Cc1c(-c2ccccc2)cc(-c2ccccc2)nc1SCC(=O)O	-1	-2	-2.2%	2.2	-1.4	-7.8%	35µM*
O=C(c1ccc(Cn2cc(Cl)cn2)o1)N1CCN(Cc2ccc3c(c2)OCO3)CC1	-6	-26	-0.2%	2.3	-7.3	-1.5%	-29%
COc1ccccc1CCC(=O)NC1CCCN(c2ccc(C(F)(F)F)cn2)C1 (configuration not stated)	-9	9	5.4%	-1.1	/	?	10%
COc1ccc(C=O)cc1COc1c(F)c(F)cc(F)c1F	13	-8	1.1%	-0.6	0.2	-1.0%	-1%
Cc1ccnc(NC(=O)CCC(=O)c2cc(C)sc2C)c1	2	29	0.9%	2.0	/	/	/
CCCC(=O)Nc1nc2ccc(C(=O)OCC)cc2s1	?	-11	1.3%	2.0	2.3	?	-9%
CN1CCC(N2CCN(C3CN(Cc4cn(Cc5ccc(F)cc5)nn4)S(=O)(=O)C3)CC2)CC1 (configuration not stated)	/	/	0.0%	-0.3	/	0.8%	/
Cc1nc(-c2ccccc2)cc(-c2ccccc2)n1	/	8	5.0%	2.6	/	/	/
CCc1nc2ccc(C(=O)NCCCN3CCCC3=O)cn2c1N(CC)Cc1cccc(Br)c1	/	/	2.0%	-1.0	/	0.0%	/
Cc1cccc(-n2nc3c(c2NC(=O)c2ccc(S(=O)(=O)N4CCOCC4)cc2)CSC3)c1C	14	-1	7.7%	-0.1	-5.2	-2.1%	5%
O=C(N/N=C/c1ccccc1Cl)c1n[nH]c2c1CCCC2	11	17	-0.3%	-0.1	0.8	0.4%	-4%
Cc1ccc(C)c(S(=O)(=O)Nc2cc3c4c(c2)CCC(=O)N4CCC3)c1	24	-2	0.8%	1.7	/	/	/
Cc1ccc(S(=O)(=O)n2nc(OC(=O)c3cccs3)cc2N)cc1	-1	0	0.9%	6.5	0.7	1.3%	-5%
Cc1ccc(C2(c3noc(CN4CCC(c5ccncc5)CC4)n3)CCCC2)cc1	-4	7	3.0%	1.5	-4.8	/	?
O=C(NC1CCS(=O)(=O)C1)c1ccc(Br)s1 (configuration not stated)	/	8	0.4%	-0.2	/	-0.4%	/
CC(C)Cc1ccc(CN2CCCC(NC(=O)Cn3cnnn3)C2)cc1 (configuration not stated)	-22	31	-0.8%	-0.5	/	-4.1%	10%
O=c1c(-c2ccc(O)cc2)coc2cc(OC3OC(CO)C(O)C(O)C3O)cc(O)c12 (configuration not stated)	6	2	-0.1%	-0.1	4.0	-1.1%	-7%
COC(=O)NCc1cc2cc(Cl)ccc2[nH]1	21	15	6.1%[38.3 µM]	0.1	-1.7	-0.1%	-9%
CN1C[C@@H]2C[C@@H](c3ccc(C#CC(C)(C)O)s3)N3CCC[C@@]23C1=O	-1	7	0.8%	0.7	0.0	-7.6%	9%
COc1ccc(OCC(O)CNCc2ccco2)cc1 (configuration not stated)	0	37	-2.8%	0.3	4.6	0.6%	9%
CCOc1ccc(Nc2nnc(-n3nc(C)cc3C)c3ccccc23)cc1	/	0	0.6%	1.2	/	0.0%	/
Nc1nnc(CC(=O)Nc2ccccc2)s1	?	5	2.2%	-0.2	5.3	/	1%
(cont.)
SMILES	TRPV1 potentiator	TRPML1 inh	PINK1 modulator	TRPML1 agonist	Menin MLL FP FL	ClpP mod	Sfp PPTase inh
O=C(c1cccc(F)c1)N1CCN(C2CCCCC2)CC1	-6	11	/	0.6	4.7	0.5%	-3%
CCCn1cnc2cc(NC(=O)c3ccco3)ccc21	3	3	0.2%	-0.4	5.2	0.2%	16%
CCCOC(=O)C1=C(C)NC(=O)NC1c1cccc2ccccc12 (configuration not stated)	5	-6	-1.1%	2.0	1.0	-4.2%	-2%
CSC1(SC2=NCCN2)SC2(NCCN2)S1	/	-7	-2.0%	-0.1	/	-22%	/
O=C1NCCN(Cc2ccc(Cl)c(F)c2)C1CC(=O)N1CCCO1 (configuration not stated)	?	-9	0.5%	-0.2	-0.3	/	16%
COc1ccc(C(=O)NN/C(=N/S(=O)(=O)c2ccc(C)cc2)c2ccccc2)cc1	-4	7	0.1%	-1.0	1.6	/	18%
COc1ccc(-c2cc(-c3ccc(OC)cc3)c(C#N)c(SC)n2)cc1	0	17	8.8%	1.8	2.4	?	-11%
COc1ccc(-c2csc(Nc3ccc(S(=O)(=O)Nc4cc(C)on4)cc3)n2)cc1	1	18	-0.6%	-0.1	0.5	-0.5%	-25%
COCC(C)NC(=O)c1ccc(CN2CCc3ccccc3C2)cc1 (configuration not stated)	-10	-4	1.2%	0.2	2.9	-0.3%	-10%
O=C(Nc1ccn(Cc2ccccc2)n1)c1ccc2c(c1)OCO2	-10	18	1.4%	0.0	0.2	-0.2%	9%
Cc1ccc(-c2nn(CC(=O)NC3CCCC3)c3c2cnc2ccccc23)cc1	/	17	2.1%	0.4	/	-19%	/
CC(=O)Nc1cc(-c2cccnc2)cn2c(-c3cccc(C(F)(F)F)c3)cnc12	/	/	1.5%	-0.8	/	?	/
N#CCCCCN1c2cccc3cccc(c23)S1(=O)=O	16	3	0.5%	1.0	-3.3	?	-5%
COc1cccc(NC(=O)[C@@H]2CCCN2C(=O)C2CCN(S(=O)(=O)c3ccc(C)cc3)CC2)c1	?	0	30%[38.3 µM]	-0.4	-5.6	-0.1%	8%
CCc1ccc(NC(=O)N2CCc3ccccc3C2)cc1	0	3	0.1%	1.9	5.9	-2.7%	5%
O=C(O)Cc1ccc(C(=O)c2ccc(F)cc2)s1	3	20	1.5%	-0.2	-1.9	0.3%	9%
CC(CN1CCN(C)CC1)OC(=O)c1ccc(F)cc1 (configuration not stated)	-8	-6	-1.9%	-0.6	1.4	-0.6%	8%
Cc1oc2cc3oc(=O)c4c(c3cc2c1C)CCC4	1	9	2.0%[38.3 µM]	-0.7	1.4	-12%	5%
Cc1cc(C)n2nc(CNS(=O)(=O)c3ccc(F)c(C)c3)nc2n1	28	18	0.3%	0.0	7.8	0.1%	7%
COc1ccc(CN(C)CC(=O)Nc2ccc(N3CCOCC3)cc2)cc1OC	9	-14	0.8%	-0.5	0.5	-16%	19%
COc1ccccc1CSc1nc2c(c(=O)n(C)c(=O)n2C)n1C	-12	7	2.4%	1.9	2.0	-2.1%	6%
COc1ccc(S(=O)(=O)N2CCOCC2)cc1NC(=O)c1ccc2c(c1)OCCO2	-5	-19	2.2%	-0.1	-1.6	0.4%	17%
CC(C)C(=O)Nc1ccc2c(c1)oc1ccccc12	8	4	-0.1%	-0.7	-4.1	-16%	9%
C=CCn1c(SCC#N)nc2ccccc2c1=O	5	9	-0.2%	-1.7	-1.2	0.9%	0%
O=C(Nc1ccc2c(c1)C(=O)OC2)c1ccc(Cl)cc1Cl	4	-15	?	-0.5	-0.3	/	9%
The list continues.
SMILES	TRPV1 potentiator	TRPML1 inh	PINK1 modulator	TRPML1 agonist	Menin MLL FP FL	ClpP mod	Sfp PPTase inh
CCOc1ccc(NC(=S)N2CCC(c3ccc(C)cc3)C2)cc1 (configuration not stated)	-3	-9	1.1%	-0.6	1.3	1.8%	14%
CCN(CC)C(=O)c1ccc(NS(=O)(=O)c2ccc(/C=C/C(=O)O)cc2)cc1	5	-18	0.7%	1.1	-4.9	/	23%
CC(=O)c1sc(-c2ccccc2)cc1NS(=O)(=O)c1ccc(C)cc1	1	18	5.4%	2.0	1.2	/	13%
Cc1ccc(-c2noc(CCC(=O)NC3CCCC3)n2)cc1	-9	-13	1.7%	-0.7	-7.7	/	4%
COc1ccc(-c2nnc(SCC(=O)N3CCc4ccccc4C3)o2)cc1	25	24	-0.6%[38.3 µM]	2.9	-0.4	-4.4%	-2%
Nc1ncccc1OCc1ccc(Br)cc1	-6	-1	-0.7%	0.2	-6.6	/	8%
CCCCC(=O)NC(c1ccc(N(C)C)cc1)c1ccc2cccnc2c1O (configuration not stated)	-5	18	3.0%	0.3	3.7	/	11%
O=C(c1ccc(CSc2nc3ccncc3n2Cc2cccc(F)c2)cc1)N1CCCCC1	/	-7	0.1%	0.1	/	-2.9%	/
O=C(COc1ccc(S(=O)(=O)NC2CCCCC2)cc1)NCc1ccccn1	-7	4	/	0.2	5.3	-2.6%	12%
CN1C(=O)NC(c2ccccc2)C2=C1CN(c1ccc3ccccc3c1)C2=O (configuration not stated)	-15	-19	0.1%	1.4	-0.6	8.6%	-6%

Record cards (already shown):
Record of COCC(C)NC(=O)c1ccc(CN2CCc3ccccc3C2)cc1 (configuration not stated) = TRPV1 potentiator: -10; TRPML1 inh: -4; PINK1 modulator: 1.2%; TRPML1 agonist: 0.2; Menin MLL FP FL: 2.9; ClpP mod: -0.3%; Sfp PPTase inh: -10%
Record of O=C(c1ccc(CSc2nc3ccncc3n2Cc2cccc(F)c2)cc1)N1CCCCC1 = TRPV1 potentiator: /; TRPML1 inh: -7; PINK1 modulator: 0.1%; TRPML1 agonist: 0.1; Menin MLL FP FL: /; ClpP mod: -2.9%; Sfp PPTase inh: /
Record of CCCOC(=O)C1=C(C)NC(=O)NC1c1cccc2ccccc12 (configuration not stated) = TRPV1 potentiator: 5; TRPML1 inh: -6; PINK1 modulator: -1.1%; TRPML1 agonist: 2.0; Menin MLL FP FL: 1.0; ClpP mod: -4.2%; Sfp PPTase inh: -2%

Assay outcomes deposited in PubChem BioAssay by National Center for Advancing Translational Sciences (NCATS).
